HIV Env fusion = inhibitors of HIV-1 Env-driven cell-cell fusion, primary screen, HeLa-JRFL effector, CEM21 target cells, luciferase; inhibition, % at 12.3 µM; hit rate 1.1% among 360,000;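 active means mean replicate inhibition score of at least 50 and every replicate individually at or above 50; inconclusive means only one of the two criteria met; inactive means mean below 50 and not all replicates reaching 50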;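 further: 0% = plate neutral controls and 100% = maraviroc near 300 nM; one replicate is shown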
MT1-MMP act inh = blockers of MT1-MMP proenzyme processing, primary screen, HT1080 RFP-PRO-GFP cells, GFP/RFP fluorescence | Matrix metalloproteinase-14 (Homo sapiens), P50281 | GFP/RFP ratio fluorescence, overnight; percent of plate control window, DMSO zero | GFP/RFP ratio change, % at 20 µM | hit rate 0.061% among 360,000;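 active means GFP/RFP ratio change of at least 30% with cell ATP level not reduced by more than half and red fluorescence within 50% of control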; further: strong numbers were not always called active
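system = RFP-PRO-GFP reporter HT1080 cells | dosing = 20 µM single dose, 1% DMSO | timing = overnight cell settling, then overnight compound exposure, 37 °C, 5% CO2 | read-out basis = GFP/RFP fluorescence ratio | controls = DMSO and RFP-L50D-GFP cell wells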
Rce1 inhib = yeast Rce1p protease inhibitors, primary screen, biochemical, fluorescence, cell-free homogeneous | AID 2563, 2010 | hit rate 0.27% among 290,000 | calls only | yeast membranes, quenched prenylated peptide cleavage fluorescence | CAAX prenyl protease 2 (Saccharomyces cerevisiae (strain ATCC 204508 / S288c)), Q03530;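 active means fall in fluorescence gain of 50% or more versus controls, with final raw signal at or below 3038400; inconclusive means same 50% fall but final raw signal above 3038400; inactive means fall in fluorescence gain under 50%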;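 further: plate controls were neutral control wells for no effect and wells lacking membranes for full effect; tested at 10 µM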
UUG fidelity = modulators of yeast start codon fidelity, primary screen, whole organism, S. cerevisiae, single point, plate reader; S. cerevisiae UUG-firefly luciferase reporter, luminescence/redox ratio; activity score, % at 18.7 µM; hit rate 0.13% among 350,000;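 active means replicate mean at a twofold rise or more, about +100% in these data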;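 further: firefly luciferase made from a UUG start codon reports start codon fidelity; reporter light over untreated wells divided by growth signal over untreated wells; some hits fall short of that in this replicate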
eIF4H inh = human eIF4H binding inhibitors, primary screen, translation initiation inhibitor project, biochemical, uHTS, fluorescence polarization | Eukaryotic translation initiation factor 4H (Homo sapiens), Q15056 | eIF4H fluorescence polarization binding assay | inhibition, % at 35 µM | hit rate 0.94% among 290,000;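 active means 50% or more with normal probe brightness, or confirmed in later tests; inconclusive means above 50% with abnormal brightness, or retests that disagree; inactive means below 50% or failed in later tests; about a fifth of its hits are not listed in these tables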;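 further: calls also rest on retests at 20 µM and on dose response follow-up; 0% = protein and probe with vehicle and 100% = probe without protein; strong numbers were not always called active; many hits fall short of the cut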
PABP polyA inh = PABP poly(A) RNA binding inhibitors, primary screen, biochemical, fluorescence polarization, uHTS; inhibition, % at 35 µM; hit rate 1% among 290,000;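 active means 50% or more with normal probe brightness, or confirmed in later tests; inconclusive means above 50% with abnormal brightness, or retests that disagree; inactive means below 50% or failed in later tests; about a fifth of its hits are not listed in these tables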;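 further: calls also rest on retests at 20 µM and on dose response follow-up; controls were probe without protein and protein plus probe with vehicle; some compounds called inactive have numbers as strong as hits; many hits fall short of the cut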
Target sequence (P11940 whole entry, looked up): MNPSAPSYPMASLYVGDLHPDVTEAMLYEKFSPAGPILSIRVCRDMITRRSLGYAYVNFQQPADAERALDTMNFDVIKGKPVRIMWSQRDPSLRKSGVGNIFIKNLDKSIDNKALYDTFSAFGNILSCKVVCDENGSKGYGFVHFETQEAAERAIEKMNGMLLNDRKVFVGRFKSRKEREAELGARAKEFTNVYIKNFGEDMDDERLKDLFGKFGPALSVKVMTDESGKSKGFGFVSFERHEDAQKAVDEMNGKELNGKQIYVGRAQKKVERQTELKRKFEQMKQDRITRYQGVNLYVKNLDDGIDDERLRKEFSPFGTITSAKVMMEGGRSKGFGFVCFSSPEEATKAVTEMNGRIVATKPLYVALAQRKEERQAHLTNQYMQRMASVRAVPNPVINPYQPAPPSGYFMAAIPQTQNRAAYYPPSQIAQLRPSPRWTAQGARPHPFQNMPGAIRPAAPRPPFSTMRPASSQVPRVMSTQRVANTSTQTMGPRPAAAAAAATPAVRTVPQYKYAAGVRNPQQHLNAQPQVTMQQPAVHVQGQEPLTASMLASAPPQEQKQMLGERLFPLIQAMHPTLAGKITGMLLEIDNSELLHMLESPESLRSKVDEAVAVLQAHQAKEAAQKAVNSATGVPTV
CSC inhib = cancer stem cell viability inhibitors, primary screen, luminescence. AID 2717, 2010. cancer stem cell-like cells viability. hit rate 1.1% among 300,000. inhibition, % at 7.5 µM;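 active means mean at 75% or more and at least half the replicates too; inconclusive means mean and replicates disagree; tested in HMLE shEcad cells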;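 further: 0% = median of negative and 100% = median of positive control wells; the first replicate is given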
MT1-MMP act inh RFP = also measured in MT1-MMP act inh; calls as there; RFP signal change, %; measured here: RFP expression control read;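 0 = vehicle wells; hits needed this value within 50% of zero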
Starred values were filed as active, the others as inactive; i = inactive; u = inconclusive; x = no result given.

# | Structure | PABP polyA inh | MT1-MMP act inh RFP | MT1-MMP act inh | Rce1 inhib | HIV Env fusion | UUG fidelity | CSC inhib | eIF4H inh
1 | Cc1ccc2c(c1)N(CCC(=O)NCCCN1CCCC1)C(=O)C(C)O2 (centres undefined) | 11 | 4 | -2 | i | -1 | -8 | 3 | 2
2 | CNC(=O)c1nc(C)n(-c2cc(Cl)ccc2Cl)n1 | 10 | -3 | -8 | i | -54 | -10 | 1 | 5
3 | CCOc1ccc(C(=O)N2CCN(c3ccccc3)CC2)cc1OCC | -7 | -6 | 2 | i | x | 4 | 5 | 7
4 | COc1cc(C(=O)NC(C)Cc2ccccn2)ccc1OC1CCN(C(C)=O)CC1 (centres undefined) | 3 | -2 | -4 | i | -4 | -5 | x | 1
5 | C/C=C/c1ccc(OCC(O)CNCCc2ccc(OC)cc2)c(OC)c1 (centres undefined) | -2 | -1 | -2 | i | 1 | 3 | 6 | 2
6 | O=C(NCC(=O)N(c1cccnc1)C(C(=O)NC1CCCC1)c1ccccc1)c1ccco1 (centres undefined) | 0 | 4 | 1 | i | 10 | x | -11 | 3
7 | NCCNc1ccc([N+](=O)[O-])c(Sc2nc3ccccc3[nH]2)c1 | 6 | -3 | -8 | i | -8 | x | 15 | 0
8 | COc1ccc(CC(=O)NNC(=O)CCc2ccccc2)cc1 | 5 | -1 | 1 | i | -5 | x | -11 | 6
9 | O=C1CSC(c2ccccc2F)N1 (centres undefined) | 10 | -1 | 1 | i | -7 | x | -2 | 4
10 | Cc1cc(C)n2nc(SCc3ccccc3C(=O)O)nc2n1 | 13 | 2 | 0 | i | -11 | -7 | -18 | 8
11 | Cc1ccc(C(=O)N2CCN(c3cc(=O)[nH]nc3-c3ccccc3)CC2)cc1 | -17 | -1 | 1 | i | u | -13 | 9 | -11
12 | CCC(C(=O)Nc1cccc(OC)c1)n1nc(C)c2c(C)n(-c3ccccc3)nc2c1=O (centres undefined) | 5 | -2 | 2 | i | 12 | -2 | -15 | -3
13 | Cc1noc(C)c1NC(=O)Nc1ccc2c(c1)C(=O)N([C@H](C)CO)C[C@H](C)[C@@H](CN(C)S(=O)(=O)c1ccc(Cl)cc1)OCCCC[C@@H](C)O2 | x | 3 | 3 | x | -12 | -4 | x | x
14 | CCCC(NC(=O)c1c(C)noc1C)C12CC3CC(CC(C3)C1)C2 (centres undefined) | 5 | -8 | -6 | i | 60* | 15 | 3 | -11
15 | O=C(Nc1ccccc1)c1ccc(NCC2CCCO2)c(S(=O)(=O)N2CCOCC2)c1 (centres undefined) | -9 | 5 | 4 | i | 4 | x | -11 | -8
16 | CCOc1ccccc1NC(=O)COC(=O)CCOc1cc(C)ccc1C | x | 2 | 4 | i | -3 | -22 | x | x
17 | CC(NC(=O)C12CC3CC(C)(CC(C)(C3)C1)C2)c1ccncc1 (centres undefined) | 9 | -5 | -5 | i | 65* | -23 | -1 | 2
18 | O=C(O)c1ccc(N=NN2CCCCCC2)cc1 | -10 | -13 | -9 | i | -39 | x | 24 | 2
19 | C=CCN(c1ccc(F)cc1)S(=O)(=O)c1cc(C(=O)NC2CC2)ccc1Cl | x | -2 | 4 | x | 7 | -4 | x | x
20 | CC(C)CN(C(=O)CCc1ccccc1)c1c(N)n(CC(C)C)c(=O)[nH]c1=O | -7 | 6 | 12 | i | x | x | -3 | -9
21 | Nc1c(N(CCO)C(=O)C2CCCC2)c(=O)[nH]c(=O)n1Cc1ccccc1 | x | 2 | -2 | x | -1 | 1 | -13 | x
22 | CC(=O)c1ccc(S(=O)(=O)Oc2ccc(C(=O)O)cc2Cl)cc1 | x | -1 | -3 | x | 1 | -2 | -10 | x
23 | COc1ccc(CNC(=O)C[C@H]2C[C@H](C(=O)N3CCCCC3)[C@@]3(C)c4[nH]c5cc(-c6ccco6)ccc5c4CCN3C2=O)cc1OC | x | -1 | -3 | x | 34 | -14 | x | x
24 | Cn1ncc2c1ncn1nc(COc3ccc4ccccc4c3)nc21 | 7 | -1 | 0 | i | x | x | -16 | 5
25 | CCOC(=O)C1CCN(CC(C)(C)NS(=O)(=O)c2ccc(C)cc2)CC1 | 8 | -3 | 1 | i | 3 | 25 | -19 | 22

3 of the entries above in order of the MT1-MMP act inh value, descending.
# | compound | MT1-MMP act inh
24 | Cn1ncc2c1ncn1nc(COc3ccc4ccccc4c3)nc21 | 0
21 | Nc1c(N(CCO)C(=O)C2CCCC2)c(=O)[nH]c(=O)n1Cc1ccccc1 | -2
22 | CC(=O)c1ccc(S(=O)(=O)Oc2ccc(C(=O)O)cc2Cl)cc1 | -3

(more compounds)
# | Structure | PABP polyA inh | MT1-MMP act inh RFP | MT1-MMP act inh | Rce1 inhib | HIV Env fusion | UUG fidelity | CSC inhib | eIF4H inh
26 | CC1(C)CC2=C(CO1)C(=S)NC(c1ccccc1)N2CC1CCCO1 (centres undefined) | 9 | 4 | 4 | i | 0 | -24 | -7 | 4
27 | COc1ccc(C2C3=C(CC(C)(C)CC3=O)Oc3ncn(CCO)c(=N)c32)cc1OC (centres undefined) | -3 | 5 | 1 | i | -3 | -14 | x | -2
28 | Cc1ccc(NC(=O)CCC(=O)NNC(=O)/C=C/C(=O)O)c(C)c1 | -8 | 6 | 4 | i | 2 | -8 | -10 | 5
29 | O=C(NCC1CC1)c1cc([N+](=O)[O-])cc([N+](=O)[O-])c1 | -1 | 2 | 4 | i | -1 | x | -14 | -4
30 | COc1ccc(C(C)=NNc2ccc([N+](=O)[O-])cc2S(=O)(=O)Nc2ccccc2C(=O)O)c(OC)c1 | x | 1 | 2 | x | 10 | 4 | x | x
31 | COc1ccc(NC(=O)CSc2nnnn2C2CC2)cc1S(=O)(=O)N1CCOCC1 | x | 0 | -2 | x | -30 | -22 | x | x
32 | N#C/C(=C\c1ccc(-c2ccc([N+](=O)[O-])cc2Br)o1)C(=O)N1CCN(c2ccccc2)CC1 | -7 | 5 | -9 | i | -55 | x | 15 | 6
33 | COCCn1nnnc1CN1CCN(c2cccc(C(F)(F)F)c2)CC1 | 27 | -2 | 4 | i | x | -8 | -1 | -5
34 | COc1ccc(OC)c(S(=O)(=O)N2CCN(CC(O)CN3CCOCC3)CC2)c1 (centres undefined) | x | -1 | -2 | x | -20 | -7 | x | x
35 | C/C(=N\NC(=O)c1cccnc1)c1ccc(-n2ccnc2)cc1 | 18 | 1 | 0 | i | 6 | x | 6 | -3
36 | COc1ccc(N=C2S/C(=C\c3ccco3)C(=O)N2CC(C)C)cc1 | 8 | -1 | -2 | i | x | -17 | 7 | 13
37 | O=C(CSc1cc(Cl)ccc1Cl)NC1CC1 | x | 4 | -2 | x | 4 | -2 | x | x
38 | O=[N+]([O-])c1cccc(-c2nnnn2-c2cccc(F)c2)c1 | x | 3 | 3 | i | -7 | 11 | -9 | x
39 | CC/C(O)=C(\C#N)c1nnc2n1CCCCC2 | -2 | 1 | -4 | i | -19 | -5 | -16 | 0
40 | O=C(COc1ccc2c3c(c(=O)oc2c1)CCCC3)NCCCN1CCCC1=O | 4 | 5 | 3 | u | 2 | -2 | -5 | -2
41 | CCc1cc(CNC(=O)CCc2nnc(CCCc3ccccc3)o2)on1 | -7 | 6 | 2 | i | -31 | -13 | -3 | 0
42 | CCCCN(C)C(=O)c1oc2ccc(S(=O)(=O)N3CCCCCC3)cc2c1C | -3 | -20 | -2 | i | 61* | 14 | 14 | 0
43 | N#Cc1cccnc1Oc1ccccc1 | 8 | 2 | 3 | i | -2 | -23 | -15 | -8
44 | CCc1nnc(NC(=O)C2Cc3ccccc3CN2S(=O)(=O)c2ccc(C)cc2)s1 (centres undefined) | 0 | -1 | -5 | i | -87 | -5 | 9 | 4
45 | CC(NC(=O)C1CCN(Cc2ccc(Oc3ccccc3)cc2)CC1)c1cccc2ccccc12 (centres undefined) | x | -9 | 1 | x | 30 | -2 | x | x
46 | O=C(Cc1ccc(Cl)cc1Cl)Nc1ccncc1Cl | 1 | -28 | 2 | i | x | -7 | 5 | -14
47 | c1csc(-c2cc(N3CCCCC3)c3ccccc3n2)c1 | -5 | 1 | -1 | i | -338 | -9 | 58 | -3
48 | Cc1cc(Cl)ccc1OCCCC(=O)NCc1ccccn1 | -2 | 3 | 4 | i | -6 | x | -7 | -9
49 | S=C(c1ccc(-c2ccc(Cl)cc2Cl)o1)N1CCCC1 | 9 | -1 | 3 | i | -20 | -17 | 0 | 0
50 | CCC(C)[C@H](NC(=O)N1c2ccccc2NC(=O)[C@@H]1C(C)C)C(=O)N[C@@H](Cc1ccccc1)C(=O)O (some centres undefined) | 6 | 2 | 0 | i | x | -10 | -9 | 7

Compound profiles, as listed above. Order of values: PABP polyA inh, MT1-MMP act inh RFP, MT1-MMP act inh, Rce1 inhib, HIV Env fusion, UUG fidelity, CSC inhib, eIF4H inh
Shown for `N#C/C(=C\c1ccc(-c2ccc([N+](=O)[O-])cc2Br)o1)C(=O)N1CCN(c2ccccc2)CC1` : -7, 5, -9, i, -55, x, 15, 6
Shown for `COc1ccc(CNC(=O)C[C@H]2C[C@H](C(=O)N3CCCCC3)[C@@]3(C)c4[nH]c5cc(-c6ccco6)ccc5c4CCN3C2=O)cc1OC` : x, -1, -3, x, 34, -14, x, x
Shown for `CCCCN(C)C(=O)c1oc2ccc(S(=O)(=O)N3CCCCCC3)cc2c1C` : -3, -20, -2, i, 61*, 14, 14, 0
Shown for `COc1ccc(C(C)=NNc2ccc([N+](=O)[O-])cc2S(=O)(=O)Nc2ccccc2C(=O)O)c(OC)c1` : x, 1, 2, x, 10, 4, x, x

(listing goes on)
# | Structure | PABP polyA inh | MT1-MMP act inh RFP | MT1-MMP act inh | Rce1 inhib | HIV Env fusion | UUG fidelity | CSC inhib | eIF4H inh
51 | COc1ccc(CCNC(=O)COC(=O)Cn2cnc3ccccc32)cc1OC | -14 | 6 | 4 | i | -4 | x | 4 | -4
52 | Cc1ccc(CN2CCN(Cc3ccc4cccc(F)c4n3)CC2CCO)cc1 (centres undefined) | -4 | -4 | 3 | i | 4 | -35 | -6 | -2
53 | O=C(Cn1cnnn1)NC1CCCN(Cc2ccccc2F)C1 (centres undefined) | 8 | 6 | 3 | i | 4 | -1 | -19 | -4
54 | COC(=O)c1c(C(=O)OC)c(-c2cccc(F)c2)n2c1CS(=O)(=O)C2 | -10 | 1 | 1 | i | 5 | x | -15 | 3
55 | COc1ccc(C2(NC(C)=O)CCN(Cc3cccnc3)CC2)cc1 | 6 | 8 | 1 | i | 11 | -8 | -5 | 5
56 | O=[N+]([O-])c1cc(S(=O)(=O)N2CCCC2)ccc1N/N=C/c1cccnc1 | 3 | 0 | 5 | i | 3 | -5 | 1 | -4
57 | CCCN(CC1CC1)C(=O)CSc1nnc(-c2cc(-c3cccs3)nc3ccccc23)o1 | 1 | -11 | -5 | i | x | -25 | 49 | 2
58 | COc1cccc(CN2CCN(C3CCN(c4ccccc4F)CC3)CC2CCO)c1 (centres undefined) | -3 | x | x | i | 3 | x | x | 5
59 | CCOc1cc(NC(=S)NCCc2ccccc2)c(OCC)cc1NC(C)=O | 3 | 2 | 1 | i | 13 | x | -8 | 0
60 | Cc1cc(Cl)ccc1OCC(=O)OCC(=O)Nc1ccc(F)c([N+](=O)[O-])c1 | 9 | 4 | 3 | x | -25 | x | -13 | 0
